Hsc70: Hsc70 inhibitors, probe displacement, primary screen, biochemical, fluorescence polarization (AID 568); Hsc70 fluorescence polarization, probe displacement; higher % means a stronger effect; strong numbers were not always called active; displacement, % at 20 µM; hits with a dose series show IC50 in µM; 83,000 tested, under 10 active;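 active means displacement above 50% without optical interference and an IC50 on retest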;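 further: ATPase domain with a fluorescein-tagged ATP probe; 0% = vehicle and 100% = excess ADP; read after one hour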
WNV NS2B-NS3 inh: blocks West Nile virus NS2B-NS3 protease activity. P06935. hit rate 0.18% among 65,000. z-score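 (tested at a level between 10 and 100 µM)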. WNV NS2B-NS3 protease, fluorogenic substrate Ex360/Em465; stronger effect = lower value. AID 577;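 active means z-score at -3 or under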;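 further: score is relative to mean and spread of the compound wells of a plate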
Target sequence (P06935 1371-1501 limits assumed): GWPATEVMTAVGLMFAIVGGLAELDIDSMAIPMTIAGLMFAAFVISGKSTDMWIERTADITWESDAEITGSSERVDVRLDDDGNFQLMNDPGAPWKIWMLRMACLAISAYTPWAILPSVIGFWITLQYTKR
Target sequence (P06935 1502-1679 limits assumed): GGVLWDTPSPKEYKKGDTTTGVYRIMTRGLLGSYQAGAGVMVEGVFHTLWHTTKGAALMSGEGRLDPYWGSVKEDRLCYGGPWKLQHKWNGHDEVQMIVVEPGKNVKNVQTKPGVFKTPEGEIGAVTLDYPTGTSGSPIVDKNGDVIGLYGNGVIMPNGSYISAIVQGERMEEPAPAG
MT1-MMP promoter: MT1-MMP gene expression reporter suppression – cell-based, luciferase reporter, luminescence (AID 618); hit rate 0.62% among 87,000; calls from a first round at 10 µM; hits with a dose series show EC50 in µM; MT1-MMP promoter luciferase reporter cells, luminescence;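 active means over half of the reporter light lost at 10 µM or EC50 under 50 µM; inactive means the rest and hits that failed the dose series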;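 further: actives suppress MT1-MMP promoter-driven transcription so potencies describe inhibitors; HT1080 fibrosarcoma cells; overnight exposure; toxic or luciferase-blocking compounds were not removed from the actives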
The depositor's hits bear a star; i = inactive; x = not tested or not shown; + = active, no number; & = joins results of further samples.

SMILES	Hsc70	WNV NS2B-NS3 inh	MT1-MMP promoter
COc1ccc(CN2CCn3ncc(C(=O)Nc4ccccc4)c3C2=O)cc1	-2.7%	x	i
CCOC(=O)/C=c1\s/c(=C\c2c(OCC)ccc3ccccc23)c(=O)n1CC(=O)NCC1CCCO1 (stereo not given)	-5.0%	x	i
O=C(CC12CC3CC(CC(C3)C1)C2)NCC(=O)N1CCCC1	-0.1%	-0.57	i
CCOC(=O)c1sc2nc(N3CCOCC3)c3c(c2c1N)CC(C)(C)N(C)C3	3.1%	x	i
CCOC(=O)c1c(C)c(C(=O)N2CCN(c3cccc(Cl)c3)CC2)c(C)n1C	6.9%	0.14	i
Cc1ccc(C(=O)Nc2cccc(C(=O)NCc3ccccc3)c2)o1	5.7%	-0.44	i
COc1ccc(C(=O)NCC(c2ccc(F)cc2)N2CCOCC2)cc1S(=O)(=O)N1CCCC1 (stereo not given)	-2.8%	-0.54	i
COCCn1c(C)cc(C(=O)COC(=O)c2ccc(N3CCCC3=O)cc2)c1C	-8.7%	0.69	i
COc1ccccc1-c1cc(C(=O)Nc2cc(C)nn2-c2ccccc2)no1	-0.8%	0.9	i
Cc1cc(=O)oc2cc3c(cc12)OCCO3	2.0%	0.27	i
CC1Cc2ccccc2N1C(=O)Cn1cnc2ccccc2c1=O (stereo not given)	0.1%	2.4	i
O=C(OCc1ccc2c(c1)OCO2)c1ccc(S(=O)(=O)N2CCCCC2)cc1	-0.6%	-0.1	i
COCCn1c(C)nc2oc3ccc(Br)cc3c(=O)c2c1=O	-4.5%	0.23	i
CC(C)CC(c1nnnn1CC1CCCO1)N1CCN(c2cccc(Cl)c2)CC1 (stereo not given)	0.5%	0.1	i
CCOc1cc(C(=O)NC(C)CC)cc(OCC)c1OCC (stereo not given)	4.6%	x	i
O=C(CCCn1c(=S)[nH]c2cc3c(cc2c1=O)OCO3)N1CCN(c2ccc(F)cc2)CC1	-3.0%	-0.34	i
CC(C)(C)NC(=O)CC(c1ccccc1)c1ccccc1O (stereo not given)	-3.8%	x	i
CC(=O)N(C)c1nnc(-c2ccccn2)s1	1.3%	x	i
Cc1ccc(S(=O)(=O)N2CCN(C(=O)C3Cc4ccccc4CN3C(=O)c3ccco3)CC2)cc1 (stereo not given)	-4.0%	-1.2	i
O=C(NCCC1=CCCCC1)c1ccc(F)c(S(=O)(=O)N2CCOCC2)c1	3.2%	1.7	i
CCN(CC)c1ncnc2sc(C(=O)N3CCN(c4ccccc4)CC3)c(C)c12	3.0%	1.2	i
COc1ccc(NC(=O)c2cccc(Cn3cc(Br)cn3)c2)cn1	-0.3%	-0.79	i
O=C(Nc1ccon1)c1ccccc1Cl	-4.4%	0.79	i
CCOC(=O)c1c(NC(=O)CSc2nnnn2C)sc(CC)c1C	1.3%	-0.69	i
C[C@]12CCC(=O)C=C1CC[C@@H]1[C@@H]2[C@@H](O)C[C@@]2(C)[C@H]1CC[C@]2(O)C(=O)CO	1.0%	0.23	i
Continuation:
SMILES	Hsc70	WNV NS2B-NS3 inh	MT1-MMP promoter
COC(=O)c1[nH]c2ccc(Cl)cc2c1NC(=O)CCN1CCOCC1	2.2%	2.3	i
CCC(C)(C)NC(=O)CN(Cc1ccc2c(c1)OCO2)C(=O)CCC(=O)Nc1ccccn1	-3.0%	-0.82	i
O=C1c2ccccc2C(Nc2ccc3c(c2)OCO3)N1Cc1ccc2c(c1)OCO2 (stereo not given)	2.6%	-1.1	i
COc1cc(OC)c(C2=NOC(C(=O)Nc3cc(C)nn3-c3ccccc3)C2)cc1Cl (stereo not given)	-4.0%	-0.66	i
CCC(C(=O)NCc1ccco1)N(C(=O)CNS(=O)(=O)c1ccccc1)c1ccc(OC)cc1 (stereo not given)	2.3%	x	i
COCCNC(=O)c1ccc(C(=O)NCCOC)s1	-1.0%	2.5	i
O=C(CN1C(=O)NC2(CCCCCC2)C1=O)NCc1ccco1	2.5%	x	i
O=C(Cc1cccs1)N1CCCC(c2nc3c(nnn3Cc3cccc(Cl)c3)c(=O)[nH]2)C1 (stereo not given)	-2.8%	0.0043	i
COc1ccccc1-n1c(SCC(=O)Nc2cccc(C)c2)nc2c(c1=O)SCC2	-3.5%	-2.6	i
O=C1C(Cl)=C(NCC2CCCO2)C(=O)N1Cc1ccccc1 (stereo not given)	-2.4%	-0.85	i
COc1ccccc1C(=O)NCc1ccccc1	0.1%	x	i
CCN(CC)c1nc2ccccc2nc1-n1nc(C)cc1C	-2.7%	x	i
Cc1ccc(Cn2nnc3c(=O)[nH]c(C4CCN(S(=O)(=O)c5cc(C)ccc5C)CC4)nc32)cc1	-9.1%	0.23	i
CC(C)(C)NC(=O)C(c1ccco1)N(C(=O)Cn1nnc(-c2ccc(F)cc2)n1)c1ccccc1 (stereo not given)	-2.2%	0.41	i
NC12CCc3c(no[n+]3[O-])C1(O)CC(c1ccccc1)=[N+]2[O-] (stereo not given)	-6.1%	x	i
C=CCc1ccc(OCC(O)CN2CCC(Cc3ccccc3)CC2)c(OC)c1 (stereo not given)	1.6%	x	i
Cc1ccc(Cl)cc1N1CCN(C(=O)C2CCN(S(=O)(=O)c3cnc[nH]3)CC2)CC1	0.8%	0.21	i
Nc1nonc1-c1nc2ccccc2n1Cc1ccccc1	-1.2%	-0.54	i
COc1ccc(CCNC(=O)CSc2nc(-c3ccco3)cc(C(F)(F)F)n2)cc1OC	-8.4%	1.8	i
CCC1(c2ccc(F)cc2)NC(=O)N(CC(=O)c2ccc[nH]2)C1=O (stereo not given)	-2.5%	0.27	i
O=C(c1ccccc1)c1ccc(OCC(O)CN2CCOCC2)cc1 (stereo not given)	5.1%	-0.98	i
COc1ccc(OC)c2[nH]c(=O)c(CCNS(=O)(=O)c3ccc(C)cc3)cc12	3.3%	0.58	i
Cn1c(-c2sc3cc(C(F)(F)F)cnc3c2-c2cccnc2)n[nH]c1=S	-2.2%	x	i
CCOC(=O)c1cnc(NCc2ccccc2)nc1C	-6.4%	1	i
CCCNC(=O)C1CCN(S(=O)(=O)c2ccc(Br)cc2)CC1	0.0%	0.63	i
The list continues:
SMILES	Hsc70	WNV NS2B-NS3 inh	MT1-MMP promoter
CCN(CC)c1ncn(Cc2c(Cl)cccc2Cl)c2ncnc1-2	2.6%	x	i
c1ccc(N2CCN(c3ccccc3)C2c2cccs2)cc1	-0.4%	2	i
O=C(C(c1ccccc1)c1ccccc1)N1CCN(Cc2ccc(Br)cc2)CC1	2.3%	x	i
CCc1ccc(NC(=O)CCNS(=O)(=O)c2cccc3nsnc23)cc1	-2.2%	x	i
COc1ccc(CCNC(=O)C2=COCCO2)cc1	1.2%	0.46	i
COc1ccc(N(CC(=O)Nc2nc3ccc(C)cc3s2)S(=O)(=O)c2c(C)nn(C)c2C)cc1	3.7%	-0.09	i
COc1ccc(C(CNC(=O)COc2ccccc2OC)N(C)C)cc1OC (stereo not given)	2.3%	-0.44	i
CN1C(=O)c2cccc(NCCCCCCN3C(=O)c4ccccc4C3=O)c2C1=O	5.3%	x	i
O=C(O)c1ccc(-c2ccco2)n1Cc1ccccc1	1.2%	1.1	i
Nc1ccc(C(=O)O)c(O)c1	5.8%&3.0%	0.72&0.55	i
Cc1ccc(OCc2nnc(SCC(=O)CC(=O)Nc3ccccc3)o2)cc1	0.2%	-0.82	i
Cc1c(/C=N/n2cnnc2)c2ccccc2n1C	-4.1%	-0.69	i
C(#CCN1CCOCC1)COCCOC(c1ccccc1)c1ccccc1	-0.7%	x	i
O=C(CSc1ncccc1C(=O)O)c1ccccc1	10%	1.4	i
CCOc1cc(C(=O)N2CCc3cc(OC)c(OC)cc3C2)ccc1OC(F)F	5.3%	-0.79	+
CCC1CCCCN1C(=O)CSc1nc(N)c(NC(=O)c2ccc(OC)c(OC)c2)c(=O)[nH]1 (stereo not given)	4.8%	-0.18	i
CC(=O)c1cccc(NC(=O)c2cc(-n3cnnc3)ccc2Cl)c1	0.8%	0.39	i
C=CCNc1nc2c(c(=O)[nH]c(=O)n2C)n1CCCCC	-3.8%	0.23	i
COC(=O)c1c(N)nc(C)n1-c1ccc(OC)cc1	2.9%	0.25	i
Cc1ccccc1NC(=O)CSCCO	-0.9%	0.67	i
CCN(CC)c1ccc(NC(=O)CN2CCN(c3nc(C)cc(C)n3)CC2)cc1	-3.0%	-1.1	i
O=C1CS/C(=N\c2ccccn2)N1C1CCCCC1	0.5%	0.99	i
COc1ccc(C(=O)Nn2cnnc2)cc1	-1.2%	x	i
N#CCCCCn1c(-c2cncs2)nc2ccccc21	6.9%	1.3	i
C=CCN1C(=O)C2C(C(=O)NCc3ccccc3)C3(C)C=CC2(O3)C1C(=O)NC(C)(C)C (stereo not given)	-8.5%	0.16	i
Next entries.
SMILES	Hsc70	WNV NS2B-NS3 inh	MT1-MMP promoter
O=C(CSc1nc2scc(-c3ccco3)c2c(=O)n1-c1ccccc1)N1CCOCC1	3.1%	1.4	i
Cc1cc(C)n(-c2nc3ccccc3nc2N2CCC(C)CC2)n1	1.2%	x	i
C=CCN(C)CCCNC(=O)/C=N/O	2.9%	0.89	i
CCn1c(SCCC(C)C)nnc1-c1c[nH]c2ccccc12	2.3%	-0.65	i
O=C1CC(NCCN2CCOCC2)C(=O)N1Cc1ccc(N2CCCC2=O)cc1 (stereo not given)	11%	-0.11	i
COc1ccc(NC(=O)C2CCN(S(=O)(=O)c3ccc(C)cc3)CC2)cc1OC	-9.0%	2.4	i
CC1CC(=O)N(CC(=O)NCc2ccco2)c2ccccc2S1 (stereo not given)	-5.6%	-1.1	i
CCn1c(-c2cc(OC)ccc2OC)csc1=Nc1c(C)n(C)n(-c2ccccc2)c1=O	3.2%	-0.13	i
Cc1ccc(C2CC(C(F)(F)F)n3nc(C(=O)NCC4CCCO4)cc3N2)cc1 (stereo not given)	-5.1%	0.16	i
Cc1noc(C)c1CSc1nnc2ccc3ccccc3n12	-3.4%	1.1	i
CCOc1ccc(OCC)c(S(=O)(=O)NCc2cccnc2)c1	-0.7%	-0.09	i
O=C(c1nsnc1-c1ccccc1O)N1CCCCC1	-5.9%	-0.2	i
O=C(CC(Nc1ccc(Cl)cc1)C(=O)O)c1ccccc1 (stereo not given)	1.3%	x	i
COc1ccc(OCc2nc(C#N)c(N3CCN(c4ccc(OC)cc4)CC3)o2)cc1	15%	-1.2	i
Cn1c(=O)oc2cc(S(=O)(=O)N3CCN(c4ccc(F)cc4)CC3)ccc21	6.3%	x	i
COc1ccc(CC(=O)c2ccc(O)cc2O)cc1OC	-2.1%	1.3	i
COc1ccc(N2CCCCn3c2nc2c3c(=O)n(C)c(=O)n2C)cc1	-1.7%	-0.39	i
CSc1cc(C)nc(N(C)C(C)=O)n1	-1.4%	1.1	i
CC(C)Oc1ccc(C(=O)NC2CCS(=O)(=O)C2)cc1 (stereo not given)	-0.7%	-0.71	i
CCCCC(=O)NCCNc1nc2c(c(=O)n(C)c(=O)n2C)n1Cc1ccccc1	9.2%	-0.46	i
COc1cc(C(=O)Nc2nnc(C)s2)cc(OC)c1OC	-0.9%	0.24	i
CCOC(=O)CSc1nc2ccc(Nc3nc(N4CCOCC4)nc(N4CCOCC4)n3)cc2s1	1.1%	x	i
Nc1nncn1C(=O)c1cccs1	-6.3%	-0.38	i
COc1ccccc1N1CCN(C(CNS(=O)(=O)c2cccs2)c2cccnc2)CC1 (stereo not given)	3.9%	-2	i
O=C(NCc1ccco1)C1CCN(C(=O)Cc2ccccc2)CC1	3.8%	-0.88	i

Gathered by group: the entries above containing a thiophene ring, fused or not (10)
SMILES	Hsc70	WNV NS2B-NS3 inh	MT1-MMP promoter
CCOC(=O)c1sc2nc(N3CCOCC3)c3c(c2c1N)CC(C)(C)N(C)C3	3.1%	x	i
CCN(CC)c1ncnc2sc(C(=O)N3CCN(c4ccccc4)CC3)c(C)c12	3.0%	1.2	i
CCOC(=O)c1c(NC(=O)CSc2nnnn2C)sc(CC)c1C	1.3%	-0.69	i
COCCNC(=O)c1ccc(C(=O)NCCOC)s1	-1.0%	2.5	i
O=C(Cc1cccs1)N1CCCC(c2nc3c(nnn3Cc3cccc(Cl)c3)c(=O)[nH]2)C1 (stereo not given)	-2.8%	0.0043	i
Cn1c(-c2sc3cc(C(F)(F)F)cnc3c2-c2cccnc2)n[nH]c1=S	-2.2%	x	i
c1ccc(N2CCN(c3ccccc3)C2c2cccs2)cc1	-0.4%	2	i
O=C(CSc1nc2scc(-c3ccco3)c2c(=O)n1-c1ccccc1)N1CCOCC1	3.1%	1.4	i
Nc1nncn1C(=O)c1cccs1	-6.3%	-0.38	i
COc1ccccc1N1CCN(C(CNS(=O)(=O)c2cccs2)c2cccnc2)CC1 (stereo not given)	3.9%	-2	i

New compounds follow:
SMILES	Hsc70	WNV NS2B-NS3 inh	MT1-MMP promoter
Cc1ccc(CNC(=O)CN2CCC(C(N)=O)CC2)cc1	3.3%	1.3	i
O=C(CCC1CCCC1)N1CCN(C(=O)C2CC2)CC1	-0.2%	-0.94	i
Nc1nnc(Cc2ccc(Cl)cc2Cl)s1	4.3%	x	i
CC(C)C(NC(=O)c1ccc(Cl)cc1)C(=O)O (stereo not given)	-1.8%	x	i
Cn1cnnc1SCCC(=O)Nc1ccc(Cl)cc1	4.9%	x	i
CCC(C)c1ccc(NC(=O)C2CCN(c3ncccn3)CC2)cc1 (stereo not given)	0.6%	x	i
CN1/C(=C\C(=O)c2ccco2)C(C)(C)c2ccccc21	-4.4%	0.87	i
CCOCCSc1nc2c(c(=O)[nH]c(=O)n2C)n1CCCc1ccccc1	3.0%	-0.16	i
